Source: PubChem (SRMLSC)
H5N1 antiviral – antiviral screen in MDCK cells, H5N1 avian flu. cytopathic effect, luminescence, 72 h; stronger effect = higher value; no value below 0 was filed and about half of the inactive calls have no number; reference of the scale not given here. inhibition, % at 50 µM. 96,000 compounds, 0.07% hits; in the data active = inhibition above about 25%
* marks the source's active call; other numbers are inactive results; i = inactive. An excerpt (hit frequency here may not be typical).

SMILES	H5N1 antiviral
CCOC(=O)N1CCC(NC(=O)c2sc(-n3cccc3)nc2C)CC1	0.2
Cc1ccc(S(=O)(=O)Cc2ccc(C(=O)N3CCCCCC3)o2)cc1	5.3
CCCn1nnc(NC(=O)c2cc3ccccc3o2)n1	i
CCOc1ccc(N2C(=O)c3ccccc3C2O)cc1 (stereo unspecified)	0.1
O=C(NCc1cccs1)c1ccc(Cl)s1	0.3
CC1=C(C(=O)NCCN2CCN(C)CC2)C2(CCC(C)CC2)OC1=O (stereo unspecified)	0.0
O=C(CN1C(=O)CC(c2ccco2)Sc2ccccc21)Nc1ccc2c(c1)OCCO2 (stereo unspecified)	0.2
CCOC(=O)c1[nH]c2ccc(F)cc2c1NC(=O)C(C)N1CCc2cc(OC)c(OC)cc2C1 (stereo unspecified)	i
CCCCc1nc(N2CCOCC2)c(C#N)c2c1CCCC2	0.1
N#Cc1c(-c2ccccc2)nc2n(c1=O)CCS2	0.5
CC(C)C1=C2OC(N)=C(C#N)C(C#N)=C2C(C)CC1 (stereo unspecified)	0.6
CCC(=NCc1ccco1)c1c(C(F)(F)F)[nH]n(-c2nc3ccccc3s2)c1=O	0.2
CCOC(=O)CSc1nc(C(C)C)nc2ccccc12	i
O=C(CSc1nnnn1C1CCCC1)Nc1cccc(NC(=O)c2ccco2)c1	i
COc1cc(OC)cc(C(=O)N2CCC(n3c(C)nc4cc(F)ccc43)CC2)c1	0.2
CCCCCc1nnc(NC(=O)OCCC)s1	i
CCOc1ccc(N(CC(=O)Nc2ccc(C)c(C)c2)S(=O)(=O)c2c(C)noc2C)cc1	5.5
Cc1nnc(SCC(=O)Nc2sccc2C(N)=O)n1Cc1ccccc1	i
CC(=O)Nc1ccc(S(=O)(=O)Nc2cc(C)c(-n3nc4ccccc4n3)cc2O)cc1	2.1
COc1ccccc1NC(=O)C(CC(C)C)NC(=O)C1CCCCC1 (stereo unspecified)	0.1
COc1cc(NC(=O)C2CCN(S(=O)(=O)c3cccc4nonc34)CC2)cc(OC)c1	i
CC(C)CCNC(=O)C1CCC(=O)N1C(C)C (stereo unspecified)	i
Cc1cccc(C)c1NC(=O)CCCSc1nnnn1C	i
COCCn1c(Sc2nc(C)cs2)nc2c1c(=O)[nH]c(=O)n2C	0.6
CCOc1cc(/C=C(/C#N)C(=O)Nc2ccc(O)cc2)cc(Br)c1O	i
Carrying on.
SMILES	H5N1 antiviral
CCOC(=O)C1=C(C)C(c2ccccc2OC)NC(=S)N1 (stereo unspecified)	i
O=C(Nc1ccccc1)c1ccc(S(=O)(=O)N(CCO)CCO)cc1	i
CCCCNc1c(N2CCN(C(=O)OCC)CC2)c(=O)c1=O	3.5
Nc1nnc(Cc2ccccc2)s1	1.8
CCCOc1ccc(C2C(C(=O)OC)=C(C)N=C3SCCC(=O)N32)cc1OCC (stereo unspecified)	i
CCc1c(C)sc(NC(=O)Cn2nc(C(F)(F)F)c3c2CCCC3)c1C#N	0.3
Cc1ccc(-n2nc3cc(C)c(N)cc3n2)cc1	i
CCCN(CCC)CCSc1nc(O)c(C(C)C)c(=O)[nH]1	0.8
CCOC(=O)c1cnc(SCC(=O)N2CCc3ccccc32)nc1N	i
CC1CCC(N2CCN(S(C)(=O)=O)CC2)CC1 (stereo unspecified)	0.6
CN(CC(=O)Nc1ccc(F)c(Cl)c1)S(=O)(=O)c1cccc2nsnc12	7.2
O=S(=O)(Nc1nccs1)c1ccc2c(c1)OCCO2	i
Cc1onc(-c2ccccc2)c1C(=O)NCC1CCCO1 (stereo unspecified)	i
COCCCN1C(=O)C(=O)/C(=C(/O)c2ccc(OCC(C)C)cc2C)C1c1cccnc1 (stereo unspecified)	0.3
COc1ccc(-c2noc(CCC(=O)NCCCN3CCC(C)CC3)n2)cc1	0.7
COc1ccccc1Nc1ncnc2nc[nH]c12	i
O=C(NCc1ccccc1)c1noc2c1CCCCC2	i
COc1ccc(C2N3CC4(C)CN2CC(C)(C3)C4O)cc1 (stereo unspecified)	i
O=C(COc1ccc(OCc2ccccc2)cc1)NC1CCOC1=O (stereo unspecified)	0.1
Cc1ccc(NC(=O)CS(=O)CC(=O)N(c2ccccc2)C(C)C(=O)NC2CCCC2)cc1 (stereo unspecified)	0.1
COc1ccc(-c2nc(C#N)c(N3CCCCCC3)o2)cc1OC	6.4
Fc1ccc(CCNCc2ccccc2Cl)cc1	i
Cc1ccc(NC2=CC(=O)CCC2)cc1C	i
Cc1nnc(C)n1/N=C/c1ccc(C(C)C)cc1	i
COc1ccccc1NC(=O)CC1C(=O)Nc2c1c(=O)n(C)c(=O)n2C (stereo unspecified)	i
Later entries.
SMILES	H5N1 antiviral
CCCn1cnc2c(cnn2-c2ccc(F)cc2)c1=O	0.5
COCCCN1CC23C=CC(O2)C(C(=O)O)C3C1=O (stereo unspecified)	0.4
CC1CN(c2nc(-c3ccc(Br)cc3)nnc2-c2ccccc2)CC(C)N1 (stereo unspecified)	i
COc1ccc(C2C=C(c3ccc(Cl)cc3)Nc3nc(NC(C)=O)nn32)cc1 (stereo unspecified)	i
CC(C)n1c(NCc2cccs2)nc2ccccc21	i
O=C1c2ccccc2C(Nc2ccccc2)N1c1cccnc1 (stereo unspecified)	0.5
COc1ccc(Br)c(C(=O)Nn2c(C)nc3ccccc3c2=O)c1	0.2
O=C(Nc1nc(-c2cccs2)cs1)c1cccc(S(=O)(=O)N2CCCCCC2)c1	i
Cc1cc(C)nc(N(C#N)S(=O)(=O)c2ccc(Br)cc2)n1	i
COc1ccc(N2CCN(C(=O)c3ccc4nc(N5CCCCC5)sc4c3)CC2)cc1	2.9
CCCc1[nH]nc2c1C(c1ccccc1OC)C(C#N)=C(N)O2 (stereo unspecified)	i
CCOC(=O)c1c(CC(C)C)csc1NC(=O)CCl	0.3
Cc1nc2nc[nH]n2c(=O)c1NS(C)(=O)=O	i
CCOc1ccc(S(=O)(=O)NCCC2=CCCCC2)c2ccccc12	1.5
Cn1cc(S(=O)(=O)N2CCN(c3cccc(C(F)(F)F)c3)CC2)c(=O)n(C)c1=O	1.4
CSCCC(NC(=O)c1ccccc1)C(=O)NCc1ccco1 (stereo unspecified)	6.4
COc1ccc(CCC(=O)Nc2nc3ccccc3[nH]2)cc1OC	i
CCc1c(C(=O)O)[nH]c2ccc(Br)cc12	0.1
Cc1cccn2c(N)c(-c3ccccc3)nc12	i
CCCCNc1cc(=O)n(C)c(=O)[nH]1	0.8
CCOC(=O)C(NC(=O)c1ccc(OC)cc1)(Nc1cc(C)on1)C(F)(F)F (stereo unspecified)	0.5
CCCCSc1nnc(NC(=O)CCc2ccccc2)s1	i
CCC(=O)NNc1cccc(Cl)n1	i
O=S(=O)(Nc1ccc(-c2nc3cccnc3s2)cc1)c1cccs1	i
CCCn1c(=O)[nH]c(=O)c2c1nc(-c1ccc(OC(F)(F)C(F)C(F)(F)F)cc1)n2CCOC (stereo unspecified)	i

4 entries from above, in CSV form.
SMILES,H5N1 antiviral
CCOc1ccc(S(=O)(=O)NCCC2=CCCCC2)c2ccccc12,1.5
CCc1c(C(=O)O)[nH]c2ccc(Br)cc12,0.1
CCCCNc1cc(=O)n(C)c(=O)[nH]1,0.8
CCCc1[nH]nc2c1C(c1ccccc1OC)C(C#N)=C(N)O2 (stereo unspecified),i

Further compounds follow.
SMILES	H5N1 antiviral
Cc1ccc2cc(CN(CC3CCCO3)S(=O)(=O)c3c(C)ccc4nsnc34)c(=O)[nH]c2c1 (stereo unspecified)	1.1
O=C(NCCOc1ccccc1Cl)c1cc(F)c(F)cc1Cl	i
CC(=O)c1c(C)nc2ccccn12	i
COc1ccccc1NC(=O)Nc1ccnn1C1CCCCC1	i
O=C(CNC(=O)c1ccc(Br)o1)NCc1ccc2c(c1)OCO2	i
Cc1cccc(C2=NCC(=O)N(CC(=O)NCc3ccco3)c3sc4c(c32)CCCC4)c1	3.9
Cc1ccc(-c2nnn(CC(=O)NCCc3ccc4c(c3)OCO4)n2)o1	i
O=C(COc1ccc(S(=O)(=O)N2CCCCC2)cc1)N1CCCCCC1	3.2
CCOC(=O)c1c(C)n(COCCO)c2ccc(O)cc12	0.3
CCCC/C(=N\O)c1c[nH]c2ccccc12	0.2
C=CCNC(=S)NNC(=O)c1cccn(Cc2ccc(Cl)cc2)c1=O	3.9
CCOC(=O)CSc1nc2c(c(=O)n1-c1ccc(OC)cc1)SCC2	i
Cc1ccc(NC(=O)C2CC(=O)n3c(nc4ccccc43)N2)cc1 (stereo unspecified)	0.8
CCOc1ccccc1NS(=O)(=O)c1cccs1	0.4
Cc1ccc(-c2noc(COc3ccccc3C)n2)cc1	0.3
O=C(c1cc2c(s1)CCCC2)N1CCC2(CC1)OCCO2	i
COc1ccc(-c2ccc(=O)n(Cc3cc(=O)n4ccccc4n3)n2)cc1	3.1
O=C(O)Cc1csc2ccccc12	i
Cc1cc(C)n(C(=O)c2cc3sccc3[nH]2)n1	i
CC(=O)Nc1ccc(S(=O)(=O)N2CCCc3ccccc32)cc1	1.0
COCC(C)NS(=O)(=O)c1ccc(C)cc1 (stereo unspecified)	0.5
CCN(CC)CCOC(=O)c1c(C)oc2ccc(OC)cc12	4.0
O=C(N/N=C/C=C/c1ccccc1)c1cc2c(ccc3ccccc32)o1	i
COc1cc2cc3c(N)c(C(=O)NCc4ccco4)sc3nc2cc1OC	i
CC(=O)c1ccc2c3c(cccc13)CC2	i
Going on with the list:
SMILES	H5N1 antiviral
CCCn1c(SCc2ccon2)nc2ccccc2c1=O	i
O=C(Cc1ccccc1)Nc1nonc1NC(=O)c1ccccc1	0.5
COc1ccc(CC2C(=O)N(c3ccccc3)C(=O)N(c3ccccc3)C2=O)c(OC)c1	i
Cc1ccc(C2C(C(=O)c3sc(C)nc3C)=C(O)C(=O)N2CCN(C)C)o1 (stereo unspecified)	i
COC(=O)c1cc(Cl)c(NC(=O)/C=C/c2ccc(Cl)cc2Cl)cc1OC	i
CCOC(=O)c1nnn(-c2nn3nnnc3c3ccccc23)c1C	4.9
COC(=O)c1c(-c2ccccc2)csc1NC(=O)c1ccco1	0.2
c1coc(CNc2ncnc3c2oc2ccccc23)c1	2.9
CN(CCNC(=O)C1(O)c2ccccc2NC(=O)N1c1ccccc1)Cc1ccccc1 (stereo unspecified)	1.2
Cc1cc(C)cc(C(=O)N2CC(C)OC(C)C2)c1 (stereo unspecified)	i
CCC(C)Nc1nc(SC(C(C)=O)C(C)=O)nc(N(C)C)n1 (stereo unspecified)	2.1
CCOC(=O)C1=C(C)NC(=O)NC1c1ccc2c(c1)OCCO2 (stereo unspecified)	i
O=C(O)c1ccc(CN2C(=O)CSC2=S)cc1	i
COC(=O)c1ccc(O)c(Sc2cc(C(=O)OC)ccc2O)c1	i
CCOc1ccc(-n2c(SC(C)C)nc3c(c2=O)SCC3)cc1	i
CCn1c(=O)n(CC)c2cc(S(=O)(=O)Nc3ccccc3C)c(C)cc21	0.3
O=C(CSc1nc(Nc2ccccc2)nc(N2CCOCC2)n1)Nc1ccc2c(c1)OCCO2	1.5
CN(C)S(=O)(=O)c1ccc(C(=O)OCC(=O)Nc2ccccc2OC(F)F)cc1	0.2
CN(C)c1ccc(CNC(=O)c2ccc(CNc3c(N4CCCCC4)c(=O)c3=O)cc2)cc1	1.0
O=C(CSc1ccc(-c2nc3ccccc3[nH]2)cn1)N1CCN(C(=O)c2ccco2)CC1	i
CC(C)(C)OC(=O)N1CCCC1C(=O)NCCc1ccccc1 (stereo unspecified)	i
O=C(CN1C(=O)CCSc2ccccc21)Nc1ccc(F)cc1	0.6
O=C(Cc1ccccc1)N1CCN(Cc2c[nH]c3ccccc23)CC1	i
CCOC(=O)C1=C(CS(=O)(=O)c2ccccc2)NC(=O)NC1c1ccccc1 (stereo unspecified)	0.2
CC(C)n1nnnc1CN1CCN(C)CC1	1.1

Single entries from the list.
`CCC(C)Nc1nc(SC(C(C)=O)C(C)=O)nc(N(C)C)n1` (stereo unspecified) in H5N1 antiviral shows 2.1
`O=C(Cc1ccccc1)Nc1nonc1NC(=O)c1ccccc1` in H5N1 antiviral shows 0.5
`COC(=O)c1c(-c2ccccc2)csc1NC(=O)c1ccco1` in H5N1 antiviral shows 0.2
`CN(C)S(=O)(=O)c1ccc(C(=O)OCC(=O)Nc2ccccc2OC(F)F)cc1` in H5N1 antiviral shows 0.2

Additional structures follow.
SMILES	H5N1 antiviral
CC(C)(C)c1ccc(OCC(=O)NCc2ccco2)cc1	0.3
Cc1cc(C(=O)O)c(S(C)(=O)=O)s1	0.7
CCCOC(=O)c1ccc(Nc2nc(C)cc(=O)[nH]2)cc1	1.2
O=C(CSc1nc2cccnc2n1Cc1ccccc1)N1CCCC1	0.2
CCn1c(SCC(=O)NCc2ccccc2)nc2ccccc2c1=O	1.4
CCS(=O)(=O)Nc1ccc(-c2nnc(SCC(=O)c3ccc(NC(C)=O)c(OC)c3)o2)cc1	0.4
O=C1CSC(c2cccnc2)N1C1CCCCC1 (stereo unspecified)	1.8
CCOC(=O)c1ccc(N2CN=C3SCC(=O)N3C2)cc1	1.9
Cc1noc(/C=C/N(C)C)c1S(=O)(=O)N(C)CC(=O)N1CCc2ccccc21	i
CCOc1ccc(NC(=O)c2cc3n(n2)C(C(F)(F)F)CC(c2ccco2)N3)cc1 (stereo unspecified)	0.5
O=C(Nc1ccccc1N1CCOCC1)c1ccccc1[N+](=O)[O-]	0.4
COc1ccccc1-c1cc(C(=O)NC(C)C)no1	i
FC(F)(F)c1cccc(NC(=S)NNC(=S)NCc2ccccc2)c1	i
CCC(=O)Nc1ccccc1C(=O)OCC(=O)c1ccc2ccccc2c1	i
CCCc1nnc(NC(=O)c2cc(OC)cc(OC)c2)s1	i
COc1ccc(C(=O)N2CCN(c3nc4ccccc4o3)CC2)cc1OC	i

In the list so far, these have a COOH group.
SMILES	H5N1 antiviral
COCCCN1CC23C=CC(O2)C(C(=O)O)C3C1=O (stereo unspecified)	0.4
CCc1c(C(=O)O)[nH]c2ccc(Br)cc12	0.1
O=C(O)Cc1csc2ccccc12	i
O=C(O)c1ccc(CN2C(=O)CSC2=S)cc1	i
Cc1cc(C(=O)O)c(S(C)(=O)=O)s1	0.7

Given as labelled records: part of the list above
> CCOC(=O)c1ccc(N2CN=C3SCC(=O)N3C2)cc1
  H5N1 antiviral: 1.9
> Cc1noc(/C=C/N(C)C)c1S(=O)(=O)N(C)CC(=O)N1CCc2ccccc21
  H5N1 antiviral: i
